Screens as filed in PubChem BioAssay.
CtBP-E1A blk = inhibitors of CtBP/E1A interaction | AlphaScreen GST-E1A/His-CtBP binding, 1536-well; stronger effect = lower value; control for the full effect not named in the record | activity change, % (test concentration not listed) | 340,000 tested, 0.49% active | AID 651724; in the data active means activity change below about -65%; inconclusive means about -30% to -65%; inactive means above about -30%; note: % is set by controls: 0 for no effect and ±100 for the full control effect; compound concentration not given in the record
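GST-E1A and His-tagged CtBP (125 nM each as 5X stock) were preincubated with pin-transferred compound for 2 h at 37 °C in the dark, then glutathione donor and nickel acceptor beads were added for 1 h before AlphaScreen reading.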
gsp agonist = gsp mutant agonism; Potency, µM (titrated, usually from 76.9 µM), for inactives: top-dose activation (cAMP increase), most hits filed as activators; 340,000 tested, 0.13% active; gsp mutant cells, cAMP HTRF, 30 min; control for the full effect not named in the record; active = well fitted activation curve with a large enough effect; inconclusive = small, poorly fitted or top-dose-only effect, or another doubt; inactive = no such curve, though single readings can be large or run the other way; cell line not stated here;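 note: phosphodiesterase inhibitor Ro 20-1724 added with compounds to block cAMP breakdown; potency is the fitted concentration of half-maximal effect; nearly all actives have a fitted effect of over 60% in size; about a fifth of the inactives were tested at one dose only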
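Cells in DMEM/10% FBS with G418 were pretreated with compounds in DMSO plus […] (300 uM stock) for 30 min at 37C. cAMP was measured by HTRF (cAMP-d2 plus anti-cAMP antibody-K) after 30 min at room temperature.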
D2 potentiator = positive allosteric modulators of human D2 dopamine receptor | potentiation, % (no concentration beside the values) | P14416 | 360,000 tested, 0.23% active | AID 624464 | DiscoveRx D2 beta-arrestin cells, luminescence, 90 min; 100% = 57 uM dopamine signal; active = potentiation of 50% or more; inconclusive = 30% to 50%; inactive = 30% or less;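 note: compound concentration not given in the record; tested on top of an EC20 dose of dopamine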
Target sequence (P14416 whole entry, looked up): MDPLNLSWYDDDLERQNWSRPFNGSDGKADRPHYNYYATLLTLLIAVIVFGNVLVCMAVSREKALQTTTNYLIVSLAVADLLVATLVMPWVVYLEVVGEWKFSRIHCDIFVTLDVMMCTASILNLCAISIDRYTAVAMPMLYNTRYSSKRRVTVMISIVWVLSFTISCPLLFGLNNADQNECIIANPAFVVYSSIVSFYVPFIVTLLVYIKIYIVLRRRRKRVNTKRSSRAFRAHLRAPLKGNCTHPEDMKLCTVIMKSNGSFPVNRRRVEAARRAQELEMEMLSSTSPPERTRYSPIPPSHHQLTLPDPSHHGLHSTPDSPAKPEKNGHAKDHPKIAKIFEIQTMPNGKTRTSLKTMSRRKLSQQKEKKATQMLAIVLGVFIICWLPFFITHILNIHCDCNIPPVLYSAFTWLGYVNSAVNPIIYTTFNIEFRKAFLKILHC
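PathHunter D2 cells, attached overnight at 37 deg C, received compound in DMSO plus dopamine at EC20 (50 nM final) for 90 min at 37 deg C. Beta-arrestin recruitment was read as luminescence after 1 h with detection reagent at ambient temperature.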
gsp antagonist = antagonizes gsp, the McCune-Albright syndrome mutation; AID 624288; Potency, µM (top dose mostly 76.9 µM), for the others: top-dose activity change, negative = inhibition, actives largely listed as inhibitors; gsp-mutant cells, cAMP HTRF, 30 min; control for the full effect not named in the record; 340,000 tested, 0.4% active; active = falling curve of any shape with a large fitted effect; inconclusive = falling curve, mostly with a smaller effect; inactive = flat or rising curve; cell line not stated here;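 note: intracellular cAMP measured with PDE inhibitor Ro 20-1724 present during compound exposure; potency is the fitted concentration of half-maximal effect; % is set by controls: 0 for no effect and ±100 for the full control effect; nearly all actives have a fitted effect of over 65% in size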
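HTRF cAMP read-out (cAMP-d2 plus anti-cAMP antibody-K in lysis buffer, 30 min RT). Before lysis, cells are exposed to compounds with […] for 30 min at 37C in DPBS containing Ca/Mg, BSA and Tween 20.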
D2 agonist = agonists of human D2 dopamine receptor (beta-arrestin) | activation, % (test concentration not listed) | DiscoveRx PathHunter D2 beta-arrestin, luminescence, 90 min; 100% = 57 uM dopamine signal | P14416 | 360,000 tested, 0.084% active; in the data active = activation above about 40%; inconclusive = about 15% to 40%; inactive = below about 15%; note: compound concentration not given in the record; the text of the record calls up to 30% inactive
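DiscoveRx PathHunter D2 beta-arrestin cells (2,100/well) attached overnight, then compound-stimulated 90 min at 37 C in HBSS/10 mM HEPES/0.1% Tween-20 buffer; beta-galactosidase complementation read by luminescence after 1 h at ambient temperature. Dopamine 57 uM final (EC100) as control.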
Six1-Eya2 inh = inhibitors of human Six1/Eya2 interaction. Q15475+O00167. AlphaScreen GST-Six1/His-Eya2 binding, biochemical; stronger effect = lower value; control for the full effect not named in the record. activity change, % (no concentration beside the values). 360,000 tested, 0.56% active; in the data active = activity change below about -65%; inconclusive = about -30% to -65%; inactive = above about -30%; note: % is set by controls: 0 for no effect and ±100 for the full control effect; compound concentration not given in the record
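AlphaScreen luminescence read after one hour at 37 °C in darkness. Pin-transferred compounds met GST-Six1 and His-Eya2 protein (5X stock 250 nM/500 nM) plus glutathione donor and Ni-chelate acceptor beads (5X, 50 ug/mL).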
Numbers without * were called inactive; u = inconclusive; x = no result given; [ ] = dose if it differs, or a comment. Random draw from the library. Share with any hit: about 1.4%.

SMILES	CtBP-E1A blk	gsp agonist	D2 potentiator	gsp antagonist	D2 agonist	Six1-Eya2 inh
COC(=O)c1cccc(NC(=O)CSc2nnc(COc3ccc(C#N)cc3)n2-c2ccccc2)c1	-2	-13%	-4	-17%	-0.8	-1
COc1ccc(C(=O)NCC(C)(C)SCc2c(C)cc(C)cc2C)cc1	-6	-18%	4	-26%	-8.8	-1
CCN1CCN(Cc2c(C)[nH]c3ccc(OC)cc3c2=O)CC1	1	-29%	-18	2%	-5.3	-3
Fc1ccc(Nc2ccc3ccccc3n2)c(F)c1	x	2%	-7	1%	-2.1	5
Cn1c(C(=O)NCCCN2CCOCC2)cc2c(=O)n(C)c3ccccc3c21	-7	-27%	-10	-4%	-3.5	0
CCC[C@H]1CCCC/C=C\CCCC(=O)OCCN1C(=O)OC(C)(C)C	12	-25%	-17	-1%	-2.8	9
COc1ccc2c(c1)[nH]c1c(=O)n(Cc3ccco3)cnc12	5	-8%	-4	-5%	-2.8	-8
CCOC(=O)c1sc(NC(C)=O)c(C(=O)OCC)c1C	9	10%	-5	15%	-3.6	9
COCCN(C(=O)CCc1ccc(OC)cc1)c1nnc(-c2ccncc2)s1	10	5%[15.4 µM]	-4	5%	-2.7	-1
COC(OC)c1ccnc(-c2ccc(OC(C)=O)cc2)n1	-11	u	-1	1%	0.3	6
CCc1nc2ccc(C(=O)Nc3cccc(NS(C)(=O)=O)c3)cn2c1N(C)CCN1CCOCC1	5	x	1	x	2.4	6
C=CCn1nnnc1-c1cc(Cl)cc(Cl)c1	-3	-1%[15.4 µM]	0	3%	-1.3	4
O=C(Cc1csc(NC(=O)c2ccccc2)n1)NO	0	27%	1	2%	2.1	-2
COc1ccc(-n2c(CNC(=O)COc3ccc(Cl)cc3Cl)n[nH]c2=S)cc1	x	-39%[inhibitor]	1	9%	-0.6	23
CN(C(=O)COC(=O)c1ccc(Cl)cc1N)C1CCCCC1	-7	-2%[15.4 µM]	-6	13%	-2.3	2
COc1cc(NC(=O)CN2C(=O)C(=O)N(C3CCCC3)C2=O)cc(OC)c1	-12	2%	-16	10%	-0.7	3
CC(=O)NN1C(=O)/C(=C/c2ccc(Br)o2)SC1=S	13	-9%	-16	-6%	0.3	u
Cc1ccc(-c2nc(C)sc2CC(=O)Nc2cccc(C)c2C)cc1	-6	-41%[inhibitor]	-17	-10%	0.4	-16
O=C(Nc1ccc(S(=O)(=O)N2CCCCC2)cc1)c1ccc(CN2CCOCC2)cc1	2	15%	-9	u	1.7	-1
CC(=O)c1ccc(N2CCN(C(=O)c3ccc(NC(=O)C4CCCO4)cc3)CC2)cc1 (stereo not drawn)	1	-3%	5	7%	-0.6	9
S=C(Nc1cccc2ccccc12)NC1CCCCC1	-13	-32%[inhibitor]	-9	-3%	-5.4	-15
Cc1c(O)ccc2c(CN3CCN(CCO)CC3)cc(=O)oc12	-2	u	-16	10%	-6.2	-3
Cc1ccc(C)c(N(C)S(=O)(=O)c2ccc3[nH]cc(C(=O)NCCN4CCOCC4)c(=O)c3c2)c1	-1	3%[15.4 µM]	-8	-4%	0.3	12
O=C(Nc1ccc2ccccc2c1)[C@@H]1C[C@H]1[C@@H](NP(=O)(c1ccccc1)c1ccccc1)c1ccccc1	-8	x	-19	-4%	-4.9	-7
COc1ccc(-n2c(CN3CCN(c4ccccc4OC)CC3)nc3ccc([N+](=O)[O-])cc3c2=O)c(OC)c1	-19	19%	-10	-9%	2.2	-11
O=C(CCC1CCN(C(=O)c2ccco2)CC1)NCc1ccc(F)cc1	4	-3%[15.4 µM]	8	3%	-2.4	2
COC(=O)C1CCN(S(=O)(=O)CCNC(=O)c2ccccc2)CC1	-6	u	-7	x	-5.1	2
Cc1ccc(S(=O)(=O)NC(=O)NCc2ccccc2)cc1	-6	9%	-2	-10%	-3.6	4
CCCCn1c(SCC(=O)c2ccccc2)nc2ccsc2c1=O	12	-2%[15.4 µM]	-8	u	1.1	7
O=C(Nc1ccc(OCc2ccccc2)cc1)Nc1nnc([C@H]2C[C@H](O)[C@@H](CO)O2)s1	-1	x	-11	x	-3.3	-1
O=C(CCNC(=O)c1ccccc1)NNC(=O)c1ccccc1Br	-2	11%	14	18%	2.1	0
COc1cccc(C(=O)NCC(=O)N2CCN(c3ccc(C(F)(F)F)cn3)CC2)c1	0	1%[15.4 µM]	-2	3%	-2.4	8
O=C1C2C3C=CC(C3)C2C(=O)N1CCCCCCN1C(=O)C2C3C=CC(C3)C2C1=O (stereo not drawn)	-1	-4%[15.4 µM]	-4	-5%	-4.1	-2
Cc1ccc(SCC(=O)Nc2ccc(S(=O)(=O)Nc3ncccn3)cc2)cc1	x	-23%	-10	-20%	-3.8	5
CCCC(=O)Nc1ccc2c(c1)nc(CN1CCN(C(=O)OCC)CC1)n2C	-9	-18%	4	0%	-0.2	2
COCCN1C(=O)c2ccccc2C(C(=O)NCCN(C)C)C1c1ccc(F)cc1 (stereo not drawn)	-10	-9%	-22	8%	-2.1	0
CCOC(=O)c1ccc(N2CCN(c3ccccc3F)CC2)c(NC(=O)Nc2ccccc2)c1	0	2%[15.4 µM]	-4	-2%	0.1	-26
Cc1nc2ccc(Br)cc2c(-c2ccccc2)c1C(=O)O	4	137%[15.4 µM]	-6	9%	-3.5	18
O=C(COC(=O)c1c(F)cccc1Cl)NC1CCCCC1	-1	5%[15.4 µM]	5	0%	-1.9	5
O=C(Cc1cccs1)Nn1c(Cc2cccs2)nc2ccccc2c1=O	6	16%	2	-2%	2.3	4

Looked up one by one from above (two):
SMILES	CtBP-E1A blk	gsp agonist	D2 potentiator	gsp antagonist	D2 agonist	Six1-Eya2 inh
Cc1nc2ccc(Br)cc2c(-c2ccccc2)c1C(=O)O	4	137%[15.4 µM]	-6	9%	-3.5	18
O=C(Cc1cccs1)Nn1c(Cc2cccs2)nc2ccccc2c1=O	6	16%	2	-2%	2.3	4

The results go on:
SMILES	CtBP-E1A blk	gsp agonist	D2 potentiator	gsp antagonist	D2 agonist	Six1-Eya2 inh
COc1ccc(NC(=O)COC(=O)c2ccc(S(=O)(=O)N3CCCCC3)cc2)c(OC)c1	2	-6%	-14	x	-3.5	4
C/C(=C\C(=O)Nc1cc(C)on1)c1ccccc1	9	-1%	-9	9%	0.2	9
COc1cc(/C=C2\SC(=Nc3ccccc3)NC2=O)cc(Cl)c1O	16	14%[15.4 µM]	-15	-17%	-1.9	-17
Cc1ccc(NC(=O)c2nc[nH]c2C(=O)N2CCCCC2)c(C(=O)c2ccccc2)c1	-8	6%	-24	-6%[15.4 µM]	-4.4	-1
Cc1cc(NC(=O)CN2C(=O)NC3(CCCCCC3)C2=O)no1	5	0%	-4	5%	-4.3	-3
Cc1ccc(NC(=S)NCc2ccc3c(c2)OCO3)cc1C	-9	-27%	-14	2%	-0.8	-12
CNC(=O)CN(c1cc(OCCOC)c(Cl)cc1Cl)S(=O)(=O)c1ccccc1	-1	-10%	-1	0%	1.4	0
CCn1c(=O)cc(SCC(=O)N2CCN(c3ccccc3F)CC2)c2ccccc21	-13	u	-12	-23%	-2.3	-9
COc1ccc(-n2c(=O)[nH]c3cc(C(=O)NCCc4ccccc4)ccc3c2=O)cc1OC	1	2%	-8	-16%	0.5	3
COc1ccc(C(C)=O)cc1CSc1nnc(Nc2c(C)cccc2C)s1	-6	-3%	-12	-9%	2.6	-5
CCOCCCNC(=O)Cn1cc2c(n1)CCCCC2	2	u	-3	1%	1.3	10
Cc1sc2ncnc(N3CCC(C(=O)NNC(=O)c4ccc(F)cc4)CC3)c2c1C	5	-11%	11	u	-0.7	-26
COc1ccc(CN2CCN(c3ccccc3OC)CC2)cc1OC	-11	3%	-3	2%	-4.5	0
CCOc1ccc(S(=O)(=O)NCCC(=O)OCC(=O)Nc2cc(C)on2)cc1	2	2%	1	-2%	0.0	3
CN(/N=C/c1ccccc1Cl)c1ncc(Cl)cc1C(F)(F)F	10	14%[15.4 µM]	-7	10%	-1.6	9
CCOc1ccc(NS(=O)(=O)c2ccc(C(=O)NCCCN3CCCC3=O)cc2)cc1	10	-11%	0	2%	-1.1	-1
CC(C)(C)OC(=O)N1CCC(c2c(C(=O)N3CCN(C4CCCCC4)CC3)cnn2-c2ccc(F)cc2)CC1	-1	-48%[inhibitor]	-8	-4%	-1.6	0
Cc1nc(NCc2ccco2)c(C#N)c2c1COC(C)(C)C2	7	-26%	16	-4%	-0.7	-1
COc1ccc(OCC(=O)Nc2ccc(N3CCOCC3)c(Cl)c2)cc1	-2	13%	-4	-17%	-4.0	-3
Nc1nc(C2CCCCC2)cs1	-1	9%	-1	6%	-2.0	-2
O=C(CCOc1ccccc1)N1CCN(S(=O)(=O)c2ccccc2F)CC1	6	2%	-13	2%	2.5	3
COc1ccccc1OCC(=O)NNC(=O)c1ccc2c(=O)n3c(nc2c1)CCC3	-4	-45%[inhibitor]	10	3%	-0.9	-5
CN(C)c1ccc(/C=N/N(Cc2ccccc2)c2ccccc2)cc1	1	2%	-12	-5%	-0.5	-1
Cc1ccc(NC(=O)CN2CCC(C(=O)c3ccc4c(c3)OCCO4)CC2)cc1	-9	-14%	-10	-18%	-0.3	-1
Cc1ccc(OCCC(=O)OCC(=O)NCCc2ccc(Cl)cc2)cc1	8	31%	-17	2%	2.3	9
COc1cc(-c2noc(C)c2C#CCO)cc(OC)c1OC	-20	-49%[inhibitor]	-7	6%	-0.8	10
Cc1ccc(SCCC(=O)N2CCN(S(=O)(=O)c3ccccc3)CC2)cc1	9	-30%[inhibitor]	2	-17%	-1.8	-6
CC(=O)c1ccc(OC2(C)CCN(Cc3ccccc3OC(F)F)C2)cc1 (stereo not drawn)	-8	x	-16	x	-5.1	2
CCc1ccccc1NC(=O)Nc1c(C)n(C)n(-c2ccccc2)c1=O	-2	u	8	5%	-3.6	12
CCN1CC=C2C(C#N)=C(N)C(C#N)(C#N)C(c3cc(Cl)ccc3Cl)C2C1 (stereo not drawn)	-6	21%	-16	-10%	-6.5	-4
Cc1ccc(S(=O)(=O)N2Cc3ccccc3CC2C(=O)N(C)C)cc1 (stereo not drawn)	4	0%	-3	x	-2.5	3
Cc1ccc(C)c(OCC(=O)Nc2ccccc2C(=O)N2CCN(C)CC2)c1	4	-11%[15.4 µM]	-5	-3%	-6.0	19
COc1cccc(CNc2nc(NCc3ccccc3)nc3ccsc23)c1	-1	x	-11	x	1.3	-3
Cc1cc([N+](=O)[O-])nn1CCCC(=O)Nc1cccc(Cl)c1Cl	5	13%	-2	0%	-2.5	-10
COc1ccccc1-c1c(C)nn2c(N3CCC(C)CC3)cc(C)nc12	-17	13%	3	u	5.9	3
N=C1N(/N=C/c2ccccc2)C(=Nc2ccccc2)C(=S)N1c1ccccc1	2	u	-9	5%	-1.9	1
Cn1c(N)c(C(=O)COC(=O)C2Cc3ccccc3CN2S(C)(=O)=O)c(=O)n(C)c1=O (stereo not drawn)	-13	u	-8	x	0.5	-27
